FEN1 inh – inhibitors of human flap endonuclease 1; P39748; Recombinant FEN1 flap cleavage, fluorescence, 15 min; Potency, µM (highest dose often 114 µM), inactives show top-dose activity change, negative = inhibition, actives largely listed as inhibitors; actives 0.35% (n = 390,000); further: nearly all actives have a fitted effect of over 65% in size
Target sequence (P39748 whole entry, looked up): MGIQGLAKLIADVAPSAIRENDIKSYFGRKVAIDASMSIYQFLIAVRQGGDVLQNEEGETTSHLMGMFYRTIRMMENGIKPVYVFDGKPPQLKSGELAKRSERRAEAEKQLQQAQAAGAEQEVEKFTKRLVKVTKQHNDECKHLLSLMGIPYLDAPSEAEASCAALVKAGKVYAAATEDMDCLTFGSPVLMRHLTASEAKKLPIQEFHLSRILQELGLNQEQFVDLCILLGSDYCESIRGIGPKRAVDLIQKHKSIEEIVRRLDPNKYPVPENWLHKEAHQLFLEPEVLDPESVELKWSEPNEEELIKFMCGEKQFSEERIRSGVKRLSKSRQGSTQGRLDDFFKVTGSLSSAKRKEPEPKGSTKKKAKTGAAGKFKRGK
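Recombinant FEN1 (10 nM) was preincubated with pin-transferred compounds for 15 min at room temperature, then flap DNA substrate (50 nM final) was added. Plates were read at 0 and 15 min, and normalized concentration–response data were fitted to a four-parameter Hill equation.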
N370S GC – N370S glucocerebrosidase modulation, Gaucher chaperone candidate; actives 0.092% (n = 330,000); N370S GC spleen homogenate, 4MU-glucoside fluorescence; Potency, µM (doses to about 59.4 µM), for the others: top-dose activity change, negative = inhibition, usual class: inhibitors;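 further: 0% = full enzyme activity and -100% = no enzyme basal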
An asterisk follows results filed as active; u = inconclusive; x = not tested or not shown; [ ] = another dose, or the depositor's remark. The call rests on the fitted dose curve; in most records, active means well fitted curve in the direction sought with a large enough effect; inconclusive means small, poorly fitted or top-dose-only effect, or another doubt; inactive means no such curve, though single readings can be large; an effect the other way counts as inactive or inconclusive. Unless noted, on the % scale 0 is the no-effect control and ±100 the full control effect; potency means the concentration at half of the fitted maximal effect.

Values run as follows: N370S GC	FEN1 inh
Cc1nc(NC(=O)/C=C/c2ccccc2)sc1C(=O)Nc1ccccc1
→ x	0%
COc1ccc(S(=O)(=O)N(C)C)cc1NC(=O)CCCSc1ccccc1
→ -8%	13%
CCc1cccc(NC(=O)CN(c2ccc(C)c(C)c2)S(=O)(=O)c2ccsc2C(=O)OC)c1
→ x	-13%
CC(=O)c1sc(NC(=O)c2ccc(C(C)(C)C)cc2)nc1C
→ -9%	-6%
CCOC(=O)N1CCC(Nc2c(Nc3ccc(C)c(C)c3)c(=O)c2=O)CC1
→ 4%	-1%
COc1cc(/C=C2/C(=O)N=C(N)N2C)cc(OC)c1OC
→ 8%	-12%
O=c1ccccn1Cc1c(F)cccc1Cl
→ -3%	-3%
Cc1cc(OCCn2cnc3ccccc3c2=O)ccc1[N+](=O)[O-]
→ -3%	4%
CC(=O)c1ccc(N2CCN(C(=O)c3ccc(C(=O)c4ccccc4)cc3)CC2)cc1
→ x	12%
Cc1ccc2occ(/C=N/NC(=O)c3ccccc3O)c(=O)c2c1
→ 0%	-6%
COc1cccc(CC(=O)OC(C)C(=O)Nc2ccc(Cl)cn2)c1 (configuration not stated)
→ -5%	-2%
O=C(COC(=O)c1ccccc1Nc1ccc(SC(F)F)cc1)NC1CC1
→ 12%	-2%
O=C(Cn1cc(S(=O)(=O)Cc2ccccc2Cl)c2ccccc21)Nc1ccc(F)cc1F
→ x	12%
CC(=O)N(C)c1ccc(OCC(O)Cn2c3ccc(Cl)cc3c3cc(Cl)ccc32)cc1 (configuration not stated)
→ -2%	-7%
COc1ccccc1C(=O)Nc1onc(C)c1C#N
→ 11%	-2%
O=C(NCCCN1CCOCC1)c1ccc(-c2ccc(Cl)cc2)o1
→ 12%	-3%
CCOC(=O)c1sc2ccccc2c1S(=O)(=O)Nc1cc(OC)ccc1OC
→ x	9%
CC(=O)Oc1c(C(=O)c2nnc(C)o2)c(=O)n(Cc2ccccc2)c2ccccc12
→ 9%	u
CN(C)/C=C(\C#N)C(=O)N/N=C/c1ccc(Cl)cc1
→ -3%	-8%
C=CCOc1ccccc1/C=c1\sc2nc(=O)c(C)nn2c1=O
→ -1%	-7%
Cc1ccc(C)c(C(=O)COC(=O)CN2C(=O)C3C4CCC(C4)C3C2=O)c1 (configuration not stated)
→ 1%	-13%
COC(=O)C1=C(C)NC2=C(C(=O)CCC2)C1c1cn(Cc2ccc(Cl)cc2Cl)nc1-c1ccccc1 (configuration not stated)
→ 15%	2%
Cc1ccc(NC(=O)c2ccc3c(c2)C(=O)N(Cc2cccnc2)C3=O)c(C)c1
→ -7%	1%
COc1cc(/C=C/C(=O)N2c3ccccc3Sc3ccc(C(F)(F)F)cc32)cc(OC)c1OC
→ 18%	9%
O=C(Cc1c(F)cccc1Cl)OCN1C(=O)c2ccccc2C1=O
→ 5%	-8%
O=C(c1ccc2c(c1)N(Cc1ccc(Cl)cc1)C(=O)c1ccccc1S2(=O)=O)N1CCOCC1
→ x	-5%
C[C@H]1CN([C@@H](C)CO)C(=O)c2cccc(NC(=O)C3CC3)c2O[C@H]1CN(C)Cc1ccncc1
→ x	-3%
CN(CC(=O)Nc1ccc(F)c(F)c1F)C(=O)C1=NN(c2ccccc2)C(=O)CC1
→ x	-2%
COc1ccc(S(=O)(=O)N2CCCCC2)cc1NC(=O)CCOc1cc(C)ccc1C
→ x	1%
O=C(c1cc(N2C(=O)C3C4CCC(C4)C3C2=O)ccc1Cl)N1CCN(c2ccccc2F)CC1 (configuration not stated)
→ 4%	3%
Cc1ccc(NC(=O)CSc2nnc(CNC(=O)c3ccco3)n2C)c(C)c1
→ 3%	3%
Cc1cc(-c2nnc(CCC(=O)NCC(C)c3ccccc3)o2)no1 (configuration not stated)
→ 0%	8%
On1nnc2ccc(C(F)(F)F)cc21
→ -2%	-1%
O=C(NCCSc1ccc(Br)cc1)c1ccc2nc[nH]c2c1
→ -9%	10%
COc1ccc(NS(=O)(=O)/C=C/c2ccc(OC)c(OC)c2)cc1
→ -15%	5%
O=C(Nc1ccc2c(c1)C(=O)N(CC1CCCO1)C2=O)c1ccccc1Br (configuration not stated)
→ 2%	-17%
CCN(c1ccc(NC(=O)COC(=O)CCc2cc(OC)c(OC)c(OC)c2)cc1)C(C)C
→ 16%	9%
COc1ccc(CNc2nc(-c3ccco3)nn2C(=O)c2ccccc2Cl)cc1
→ x	9%
Cc1sc2c(c1C)CN(Cc1ccncc1)CN2C(=O)c1ccco1
→ x	-12%
N=C1/C(=C/c2ccc(Br)o2)C(=O)N=C2SC(CC(=O)N3CCCC3)=NN12
→ -9%	u

Three compounds already listed, arranged by SMILES length, rising.
Values run as follows: N370S GC	FEN1 inh
Cc1cc(-c2nnc(CCC(=O)NCC(C)c3ccccc3)o2)no1 (configuration not stated)
→ 0%	8%
O=C(c1ccc2c(c1)N(Cc1ccc(Cl)cc1)C(=O)c1ccccc1S2(=O)=O)N1CCOCC1
→ x	-5%
COC(=O)C1=C(C)NC2=C(C(=O)CCC2)C1c1cn(Cc2ccc(Cl)cc2Cl)nc1-c1ccccc1 (configuration not stated)
→ 15%	2%

Other entries.
Values run as follows: N370S GC	FEN1 inh
CCC1CN(C(=O)N2CCC(C(=O)O)CC2)c2cc(C)ccc2O1 (configuration not stated)
→ x	18%
CCCCCCSc1nnc(N)s1
→ 15%	4%
CC1CCN(C(=O)c2ccc(CNS(=O)(=O)c3ccc(C(C)(C)C)cc3)cc2)CC1
→ x	-23%
COc1ccc(-c2cc(C(=O)NNC(=S)NC(=O)c3c(-c4ccccc4)noc3C)[nH]n2)cc1
→ -17%	2%
Cc1cccc(NC(=O)C2CCCN(S(=O)(=O)c3ccc(Br)s3)C2)c1 (configuration not stated)
→ x	8%
Cn1nccc1C(=O)N1CCN(c2cccc(C(F)(F)F)c2)CC1
→ 5%	8%
O=[N+]([O-])c1ccc(NCCCNS(=O)(=O)c2ccccc2)cc1
→ -20%	1%
COc1ccc(NC(=O)CCc2ccccc2)cc1S(=O)(=O)N1CCCCC1
→ x	3%
O=C(c1cc(COc2ccc(F)cc2Cl)on1)N1CCCC(OCc2cccnc2)C1 (configuration not stated)
→ 15%	-1%
Cc1cc(OCC(=O)NC2CCCCC2)ccc1Cl
→ u	0%
CCNc1ccc(S(=O)(=O)N(C)C)cc1[N+](=O)[O-]
→ 3%	15%
COc1ccc(CCC(=O)NNC(=O)c2ccccn2)cc1OC
→ 0%	-8%
Cc1nn(-c2nc3ccccc3n2Cc2ccccc2)c2c1C(=O)CC(C)(C)C2
→ 8%	7%
CC(C)(C)NC[C@H](O)c1cc(O)cc(O)c1
→ -3%[21.6 µM]	x
Cc1ccc(S(=O)(=O)NC(C)(C)CSc2nncn2C)cc1
→ 3%	0%
CCOC(=O)C1=C(C)NC(SCC(=O)Nc2cc(C)on2)=C(C#N)C1c1cccs1 (configuration not stated)
→ -14%	-22%
CCOC(=O)c1c(S(=O)(=O)N2CCN(c3ccc(C(C)=O)cc3)CC2)c(C)n(C)c1C
→ -11%	-5%
Cc1ccccc1Nc1c(-c2c[nH]c3ccccc23)nc2ccccn12
→ x	-1%
Cc1ccc(C(=O)NCC(=O)OC(C)C(=O)NC2CCCc3ccccc32)cc1 (configuration not stated)
→ -1%	-3%
Cc1ccc(CSc2nnc(-c3ccncc3)n2N)cc1
→ 5%	0%
COC(=O)c1ccccc1NC(=O)c1cccc(NC(=O)C(C)C)c1
→ 10%	14%
O=c1[nH]c(=O)n(C2CC(O)C(CO)O2)cc1C(F)(F)F (configuration not stated)
→ 0%	x
O=C(N/C(=C\c1ccc(-c2ccccc2)o1)C(=O)N1CCOCC1)c1ccccc1
→ 3%	0%
COc1cc(C(=O)OCC(=O)Nc2cc(C)on2)c([N+](=O)[O-])cc1OC
→ 15%	3%
COc1ccc(CSc2nc(C)cc(=O)[nH]2)cc1
→ 12%	13%
COc1ccnc2c1c(=O)n(Cc1ccc(Cl)cc1)c(=O)n2C
→ -13%	-19%
CC(=O)N1c2ccc(S(=O)(=O)N3CCC(C(=O)Nc4ncccc4C)CC3)cc2CC1C (configuration not stated)
→ 17%	1%
Cc1nnc(N2CCN(c3cccc(C(F)(F)F)c3)CC2)c2c1nnn2Cc1ccccc1
→ x	-17%
CC1CCCCN1S(=O)(=O)c1ccc2c(c1)CCN2C(=O)CCC(=O)O (configuration not stated)
→ 15%	-5%
Brc1ccc(N=Cc2ccccn2)cc1
→ 1%	-4%
CN(CC(=O)Nc1ccccc1Cl)C(=O)Cn1cc(C(F)(F)F)ccc1=O
→ x	21%
CCOC(=O)c1[nH]c(C)c(C(=O)OCC(=O)N2CC(=O)Nc3ccccc32)c1C
→ 4%	8%
COc1ccccc1-c1ccc(=O)n(CC(=O)NC2CCc3ccccc32)n1 (configuration not stated)
→ -19%	-4%
CC(=O)N(c1cccc(Cl)c1)c1nc(C)cc(C)c1C#N
→ 3%	20%
Cc1ccc(C(=O)ONc2ccc(N=NC(=O)c3ccccc3O)cc2)cc1
→ -6%	1%
Brc1cccc(CN2CCCCCCC2)c1
→ -8%	1%
COc1ccc(CNC(=O)c2ccc(Br)o2)cc1
→ 9%[89.1 µM]	16%
O=S(=O)(c1cc(C(F)(F)F)ccc1Cl)N1CCN(c2ncnc3ccccc23)CC1
→ u	-4%
O=C(CSc1nc2ccccc2o1)NCC(=O)c1ccccc1
→ 10%	1%
Cc1ccc(C)c(Cn2nnc(C(=O)NCc3ccc(Cl)cc3Cl)c2N)c1
→ x	17%
Nc1nc(CCl)nc(Nc2ccccc2)n1
→ -7%	2%
O=C(/C=C/c1ccco1)Oc1cc(Br)cc(/C=N/NC(=O)c2ccccc2O)c1
→ 1%	-8%
CN[C@@H]1CC[C@H](c2ccc(Cl)c(Cl)c2)c2ccccc21
→ x	10%
Cc1ccc(S(=O)(=O)c2nnn3c2nc(NC2CCCCC2)c2sccc23)cc1
→ x	-17%
Cc1nnc(NC(=O)c2ccccc2)s1
→ x	18%
CC(C)=CCCC1(C)C=Cc2c(c(C)cc3c2[nH]c2ccccc23)O1 (configuration not stated)
→ 5%	x
COC(=O)c1ccc(C)c(NC(=O)CN(c2ccccc2)S(=O)(=O)N(C)C)c1
→ 12%	0%
N#Cc1c(Nc2ccccc2)sc(C(=O)C2CC2)c1N
→ -17%	-1%
Cc1cc(OC(=O)c2ccc(C(C)(C)C)cc2)c([N+](=O)[O-])c(=O)[nH]1
→ -9%	0%
COc1cc(C(=O)Cc2nc3ccccc3n2C)cc(OC)c1OC
→ -5%	-2%
CC(NC(=O)[C@H](C)NC(=O)N1CCn2c1nc1ccccc12)c1ccccc1 (some centres not stated)
→ -5%	-5%
COc1cccc(C(C(=O)NC2CCCC2)N(C(=O)c2csnn2)C2CC2)c1 (configuration not stated)
→ 7%	2%
S=C(N/N=C/c1ccc2c(c1)OCO2)NC1CC2CCC1C2 (configuration not stated)
→ 15%	2%
CN(Cc1ccon1)C(=O)CC1C(=O)NCCN1Cc1ccc(F)c(F)c1 (configuration not stated)
→ 0%	3%
Cc1ccc(-c2csc(NC(=O)CCCc3cccs3)n2)cc1
→ 1%	17%
O=C(Nc1ccc(Cc2ccncc2)cc1)C1CC1
→ 0%	-1%
CCOc1ccc(Nc2ccc(S(=O)(=O)N3CCN(C)CC3)cc2[N+](=O)[O-])cc1OCC
→ x	-8%
CCn1c(SCC(=O)Nc2sc3c(c2C(N)=O)CCC(C)C3)nnc1-c1ccco1 (configuration not stated)
→ 11%	u
CCN(CC)c1ccc(N=Cc2ccccc2[N+](=O)[O-])cc1
→ -8%	6%
CCC(C)(C#CCN1CCCCC1)OC(C)=O (configuration not stated)
→ 8%	-5%

Look-ups from the entries so far:
`Cc1cc(OC(=O)c2ccc(C(C)(C)C)cc2)c([N+](=O)[O-])c(=O)[nH]1` | N370S GC: -9%
`Cc1ccc(S(=O)(=O)c2nnn3c2nc(NC2CCCCC2)c2sccc23)cc1` | FEN1 inh: -17%
`CCOc1ccc(Nc2ccc(S(=O)(=O)N3CCN(C)CC3)cc2[N+](=O)[O-])cc1OCC` | FEN1 inh: -8%
`Cc1nnc(NC(=O)c2ccccc2)s1` | FEN1 inh: 18%
`CN[C@@H]1CC[C@H](c2ccc(Cl)c(Cl)c2)c2ccccc21` | FEN1 inh: 10%
`CCC(C)(C#CCN1CCCCC1)OC(C)=O` (configuration not stated) | N370S GC: 8%

Next compounds.
Values run as follows: N370S GC	FEN1 inh
CC(C)c1ccc(NC2CCCN(C(=O)c3cccc4nccnc34)C2)cc1 (configuration not stated)
→ 3%	0%
Cn1c(SCC(=O)Nc2ccc(F)cc2)nc2c(c1=O)SCC2
→ -4%	-2%
CCn1c(=O)cc(OCC(=O)NCCCN2CCCC2=O)c2ccccc21
→ 0%	2%
Cc1nn(C)c(C)c1CNC(=O)Nc1cccc(Cl)c1
→ 0%	1%
Cc1ccc(C(NC(=O)N2CCN(C)CC2)C(Cl)Cl)cc1F (configuration not stated)
→ -11%	7%
O=C(CN1CCSC1=NCc1ccccc1)c1ccc(Cl)cc1
→ 8%	-13%
O=c1nc(SCc2cccc(C(F)(F)F)c2)nc2ccccn12
→ 19%	-8%
CSc1cccc(NC(=O)C2CC(=O)N(Cc3ccccc3)C2)c1 (configuration not stated)
→ -2%	-7%
O=C(COC(=O)CC1CCCC1)Nc1ccccc1[N+](=O)[O-]
→ x	3%
CC1CCCCN1c1nnc(N)s1 (configuration not stated)
→ -5%	2%
CN1C(=O)CC(N2CCC(c3nc4ccccc4[nH]3)CC2)C1=O (configuration not stated)
→ -3%	12%

A portion of the library, and most or all hits are left out here.
